Screening results: PubChem, National Center for Advancing Translational Sciences (NCATS)
Vaccinia mCherry – inhibitors of vaccinia virus infection (mCherry reporter signal) | Vaccinia virus mCherry reporter infection, fluorescence; about a quarter of the inactives have no number | Potency, µM (titrated, usually from 36.5 µM), for the others: at the highest dose activity change, negative = inhibition, hits mostly inhibitors | hit rate 0.63% among 310,000; active = well fitted inhibition curve with a large enough effect; inconclusive = small, poorly fitted or top-dose-only effect; inactive = no such curve, though single readings can be large or run the other way; tested in A549 cells; further: nearly all actives have a fitted effect of over 35% in size; inactives centre near -10
VACV Venus inh – inhibitors of vaccinia virus (Venus reporter) | Potency, µM (series often up to 36.5 µM), without a hit: at the top dose activity change, negative = inhibition, most hits filed as inhibitors | AID 720580 | hit rate 0.46% among 330,000 | Vaccinia virus Venus reporter expression, fluorescence; active means well fitted inhibition curve with a large enough effect; inconclusive means small, poorly fitted or top-dose-only effect; inactive means no such curve, though single readings can be large or run the other way; tested in A549 cells; further: nearly all actives have a fitted effect of over 30% in size; inactives centre near -10
* hit, by the source's call; i = inactive; ? = inconclusive; . = no result given; [ ] = dose if it differs, or a comment. On the % scale 0 is the no-effect control and ±100 the full control effect; potency means the concentration at half of the fitted maximal effect. Rows are unselected. Share with any hit: about 0.82%.

SMILES	Vaccinia mCherry	VACV Venus inh
Cc1cn(C(=O)c2cccc(Br)c2)c(C)n1	-14%[1.46 µM]	-16%
C[C@@H]1CC2(CCCC[N+]2(C)C)C[C@H]1C	-5%	-11%
CC(=O)Nc1ccc(NC(=O)C2CCN(S(=O)(=O)c3ccc4c(c3)CCCC(=O)N4)CC2)cc1	-2%	6%
Cc1ccc(-c2nnc(CSc3nc(C(C)C)nc4sc(C)c(C)c34)o2)cc1	i	-12%
COc1ccc(C2=NOC(C(=O)NCc3cccnc3)C2)cc1 (centres undefined)	-9%	-5%
COC(=O)c1c(NC(=O)c2ccc(OC(C)C)cc2)sc2c1CC(C)(C)NC2(C)C	?	18µM*
COc1ccc(NC(=O)C2=C(C)Nc3nc(SCc4ccccc4C)nn3C2c2ccc(Br)cc2)cc1 (centres undefined)	-8%	-11%
COc1cc(C(=O)NCC(=O)NCCN2C(=O)S/C(=C\c3ccc4c(c3)OCO4)C2=O)cc(OC)c1OC	-10%	-4%
CC(C)C1CC(C(F)(F)F)n2nc(C(=O)O)cc2N1 (centres undefined)	i	4%
COc1ccccc1N1CCN(CC(O)COc2ccc(C)c(C)c2)CC1 (centres undefined)	?	-7%
CC1CCN(C(=O)CCNC(=O)c2ccccc2Cl)CC1	-14%	-5%
COc1cccc(CNC(=O)CCC2CCCN(C(=O)c3ccc(F)c(Cl)c3)C2)c1 (centres undefined)	-13%	-13%
COc1ccc(-c2noc(CCC(=O)N3CCN(c4cccc(C)c4)CC3)n2)cc1	i	-7%
O=C(Nc1ccc(F)cc1F)c1cccc2c1C(=O)N(C1CCCCC1)C2	-18%	-8%
CNC(=O)c1cccn(Cc2cccc(C(F)(F)F)c2)c1=O	i	4%
CCN(CC)C(=O)c1ccc(CS(=O)(=O)c2ccc(OC)cc2)o1	i	0%
Cc1ccccc1-c1nnc(-c2ccc(Br)cc2)o1	i	-14%
CCOc1ccc(C(=O)Nc2nc(C)c(C(=O)OC)s2)cc1	i	-13%
Cc1ccc(CNC(=O)c2ccc3c(c2)N(Cc2cccc(Cl)c2)C(=O)CS3)cc1	-16%	-9%
CCCN(C(=O)/C=C/c1ccc(S(=O)(=O)N(CC)CC)cc1)C1CCS(=O)(=O)C1 (centres undefined)	-11%	-6%
COc1ccc(N2CCN(C(=O)COc3ccccc3C#N)CC2)cc1	-3%	-4%
Cc1cc(Cl)ccc1C(=O)C1CCCN(C(=O)CCN2CCCO2)C1 (centres undefined)	i	-8%
O=C(NCC1CCCO1)C1CCN(C2CCN(C(=O)CC3CCCC3)CC2)CC1 (centres undefined)	0%	-21%
CC(C)CC(=O)NC(=S)Nc1cc(C(F)(F)F)ccc1N1CCOCC1	i	-28%
Nc1nonc1-c1nc2ccccc2n1CC(=O)N/N=C\c1ccc(-c2ccc(Cl)cc2)o1	5%	3%
COc1cccc(C(=O)Nc2cccc(-c3nc4ncccc4o3)c2C)c1	.	-3%
CCn1nc(C)c(/C=N/NC(=O)Cc2ccc(Cl)cc2)c1C	i	-13%
Cc1ccc(-c2nnc(SCC(=O)Nc3sc(C)c(C)c3C#N)n2C)cc1	-12%	-10%
O=C(c1nc2ncccn2n1)N1CCN(c2ccc(F)cc2)CC1	.	-9%
C=CCNC(=O)CCC(=O)NNc1nc2ccccc2c2nc(-c3ccccc3)nn12	-16%	-21%
C1=CN2CC=Cc3cc(/C=C/c4ccnc5ccccc45)cc(c32)C1	-5%	169%[activator]
O=C(CCCn1c2ccccc2c(=O)c2ccccc21)Nc1ccc(F)cc1Cl	-17%	-7%
CC1CCCC(NC(=O)COc2ncnc3ccccc23)C1C (centres undefined)	-13%	-7%
CCc1ccc(NC(=O)c2ccccc2Br)cc1	-11%	-8%
CN(C(=O)COn1nnc2ccc(S(=O)(=O)N3CCOCC3)cc21)c1ccccc1	-16%	-6%
CCOC(=O)c1c(-c2ccc(C)o2)csc1NC(=S)NC(=O)c1ccc(F)cc1	-11%	-28%
NC(=O)Nc1ccc(Oc2ncc(C(F)(F)F)cc2Cl)cc1	2%	3%
C[C@@H]1CN([C@@H](C)CO)C(=O)CCCn2nncc2CO[C@H]1CN(C)C(=O)Nc1cccc(Oc2ccccn2)c1	-4%	-8%
COCCN(C(=O)CNC(=O)c1ccco1)C(C(=O)NC1CCCC1)c1ccccc1 (centres undefined)	-9%	1%
C=C1c2cc(C)c(C)cc2NC(=O)N1c1ccccc1	-16%	-13%
Cc1cccc(CNc2ccnc(-c3cccnc3)n2)c1	-15%	-8%
C#CCNC(=O)C1CCN(c2ccc(S(=O)(=O)N3CCOCC3)cc2Cl)CC1	-4%	-4%
Cc1cc(S(=O)(=O)N2CCCC2)ccc1OCC(=O)N1CCC(C(N)=O)CC1	1%	-5%
COc1ccc(CCN(C)C(=O)c2cnc(C)cn2)cc1OC	i	3%
Cc1ccc(N2C(=O)CSC2c2ccccn2)cc1Cl (centres undefined)	-12%	-6%
Cc1ccc(C)c(Cn2c3ccccc3c3cnn(CC(=O)NCCCc4ccccc4)c(=O)c32)c1	-13%	-16%
COc1cccc(C(=O)c2cn(CC(=O)NCc3ccccc3)c3nc(C)ccc3c2=O)c1	-5%	-12%
Cc1cccc(-c2noc(CCCOc3ccc(Cl)cc3Cl)n2)c1	-29%	-19%
CC(Sc1nc2cc([N+](=O)[O-])ccc2n1-c1cccc(C(F)(F)F)c1)C(=O)NC(N)=O (centres undefined)	-8%	-1%
CC(NC(=O)COC(=O)Cc1ccc(-c2ccccc2)cc1)c1ccccc1 (centres undefined)	-8%	-5%
The listing continues.
SMILES	Vaccinia mCherry	VACV Venus inh
CCOc1cccc(C(=O)Nc2ccc3c(c2)OCCO3)c1	-3%	-20%
O=C(CN(c1ccc(Cl)cc1)S(=O)(=O)c1ccccc1)N/N=C/c1ccco1	.	-20%
O=C(COC(=O)COc1ccc(Cl)cc1)Nc1ccc(F)c([N+](=O)[O-])c1	i	-9%
Cn1c(CC(=O)Nc2ccccc2F)nnc1SCC(=O)Nc1nncs1	-25%	-2%
CCOC(=O)C1=C(COC(=O)COc2ccc(C(=O)CC)cc2)NC(=O)NC1C (centres undefined)	-15%	-3%
CCc1ccc(CN2CCSCC2)cc1	0%	-2%
COC(=O)C1=C(O)CSC1=Nc1ccc(C)cc1	-1%	-12%
COc1cc(OC)cc(-c2nnc(SCC(=O)c3ccc([N+](=O)[O-])cc3)o2)c1	-19%	-9%
CCN(CC)S(=O)(=O)c1ccc(NC2c3ccccc3C(=O)N2CCN2CCOCC2)cc1 (centres undefined)	-2%	-14%
C1=C(c2ccco2)N2CCN=C2S1	-21%	-17%
CC(CCc1ccc(O)cc1)NCc1ccc(Cl)cc1Cl (centres undefined)	-13%	-20%
CCOc1ccc(-n2ccnc2SCC(=O)Nc2nnc(C)s2)cc1	0%	-8%
O=C(NCCOc1ccccc1)c1ccc2c(c1)S(=O)(=O)c1cc(Cl)ccc1C2=O	?	-14%
CN(C(=O)Cn1nc(C(=O)O)c2ccccc2c1=O)C1CCCCC1	-20%	-13%
O=S1(=O)C[C@@H](N2CC[C@@H](O)C2)[C@H](COCc2ccccc2)N1	11%	-1%
CNC(=S)Nc1ccc(-c2nc3ccc(C)cc3s2)cc1	?	?
CCCCc1nnc(NC(=O)c2ccc(OCc3c(C)noc3C)cc2)s1	-15%	-8%
CCOc1ccccc1CNC(=O)c1nn(CC)cc1[N+](=O)[O-]	-18%	-9%
CC(=O)C[C@@H](O)CC(=O)[C@H]1OC(=O)[C@H](C)CCCCc2ccccc21	i	-16%
NS(=O)(=O)c1ccc(NC(=O)N[C@@H](Cc2ccccc2)C(=O)O)cc1	-3%[1.46 µM]	-8%
Cc1ccc(N(CC(=O)N2CCc3ccccc3C2)S(C)(=O)=O)cc1	-13%	-6%
O=C1OCCN1C(=O)[C@H]1[C@H](c2ccc(Cl)cc2)C(c2ccccc2)=NN1c1ccc(Br)cc1	i	0%
O=C1C(=Cc2ccc(F)cc2)CCc2ccccc21	-8%	-14%
CCC(C)n1c(=O)c2sccc2n2c(CCCC(=O)N3CCN(c4ccccc4)CC3)nnc12 (centres undefined)	-12%	-13%
CC(=O)NCCNC(=O)C1CCCCN1S(=O)(=O)c1ccccc1 (centres undefined)	0%	-13%
Cc1nc2ccc(Cl)cc2c(-c2ccccc2)c1CC(=O)O	i	-10%
OCC1CCCN(C(=S)Nc2ccc(OC(F)F)cc2)C1 (centres undefined)	-12%	-2%
O=C(Oc1ccc(N2C(=O)C3C4CCC(C4)C3C2=O)cc1)c1ccco1 (centres undefined)	-24%	-18%
CCCCC(=O)N(C)c1c(CC)nc2c(OCC(=O)c3ccc(Cl)cc3Cl)cccn12	-12%	?
COc1ccc(OC)c(NC(=O)C2(C)CCN2C(=O)CCC2CCCC2)c1 (centres undefined)	11%	-15%
COC(=O)Nc1nc(-c2ccccc2)c(C(=O)c2ccc(Cl)cc2)s1	.	?
O=C(COC(=O)CCN=C1NS(=O)(=O)c2ccccc21)NC1CCCCCCC1	-7%	-4%
C[C@@H]1CN([C@@H](C)CO)C(=O)Cc2cc(NC(=O)C3CCCCC3)ccc2O[C@H]1CN(C)S(=O)(=O)c1ccccc1	i	-13%
CCOC(=O)N1CCN(S(=O)(=O)c2cn(C)c(=O)n(C)c2=O)CC1	-16%	-17%
CNC(=O)C1Cc2ccccc2CN1S(=O)(=O)c1ccc(OC)c(OC)c1 (centres undefined)	-11%	-6%
COc1ccc2[nH]c(=O)c(CN(CC3CCCO3)C(=O)Nc3ccc(F)cc3)cc2c1 (centres undefined)	-19%	-11%
COc1ccc(NC(=O)CSc2nnc3n2CCCCC3)cc1S(=O)(=O)N(C)C	-2%	-10%
COC(=O)c1ccc(C23CC4(C2)[C@H](CN(Cc2ccc(C(F)(F)F)cc2)[C@@H]4c2ccccc2)C3c2ccccc2)cc1 (some centres undefined)	-4%	-2%
O[C@H]1C[C@H](c2ccc(Cl)cc2)N(CC2CCCCC2)C[C@@H]1n1cc(-c2ccc(F)cc2)nn1	i	-12%
O=C(CCS(=O)(=O)c1ccccc1)N(CCCN1CCOCC1)c1nc2c(F)cccc2s1	-4%	?
CCOC(=O)c1ccc(S(=O)(=O)N2CCN(C(C)=O)CC2)cc1	0%	-13%
O=C(c1cccs1)c1cn(CCOc2ccc(F)cc2)c2ccccc12	-19%	-14%
Cc1ccc(OCC(=O)Nc2ccc3c(c2)nc(CCNC(=O)c2ccco2)n3C)cc1	-12%	-19%
c1csc(CNc2ncnc3ccc(-c4ccc5c(c4)OCO5)cc23)c1	i	14%
CCC(=NCCC(c1ccccc1)c1ccccc1)c1c(O)n(C)c(=O)n(C)c1=O	-11%	-26%
O=C(Nc1ccc(C(F)(F)F)cc1)C1CCCN(c2cnccn2)C1 (centres undefined)	3%	-11%
O=C(Cn1nc(-c2ccccc2)ccc1=O)NCc1ccc2c(c1)OCO2	-29%	-20%
CC(/C=N/NC(=O)c1cccs1)=C\c1ccccc1	i	-17%
Nn1c(Cc2cccc3ccccc23)nnc1SCCOc1ccc(F)cc1	-7%	-17%
COc1ccccc1C1CCN(Cc2c(C)[nH]c3ccccc23)CC1	-20%	-15%
Further records follow:
SMILES	Vaccinia mCherry	VACV Venus inh
CC(C)Oc1ccc(/C=N/NC(=O)C2CCCN2S(=O)(=O)c2ccc(Cl)cc2)cc1 (centres undefined)	.	?
Cc1nnc(SCC(=O)NC(=O)NCCC(C)C)s1	-21%	-4%
COc1ccc(S(=O)(=O)N(C)CC(=O)Nc2ccc3c(c2)OCO3)cc1	0%	-17%
CCOc1ccc(NC(=O)CSC(N)=O)cc1	0%	6%
Cc1cc(C)n2c(Br)c(CN3CC4CC(C3)c3cccc(=O)n3C4)nc2n1 (centres undefined)	i	-8%
CCn1c(=O)c2cc(C(=O)N3CCN(c4cccc(OC)c4)CC3)sc2c2ccccc21	-13%[7.34 µM]	-8%[7.34 µM]
